# MT1-MMP reporter: inhibitors of MT1-MMP promoter transcription, cell-based, luciferase reporter, luminescence (AID 618) | MT1-MMP promoter luciferase reporter cells, luminescence | calls from a first round at 10 µM; hits with a dose series show EC50 in µM | hit rate 0.62% among 87,000;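 active = over half of the reporter light lost at 10 µM or EC50 under 50 µM; inactive = the rest and hits that failed the dose series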;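 note: actives suppress MT1-MMP promoter-driven transcription so potencies describe inhibitors; HT1080 fibrosarcoma cells; overnight exposure; toxic or luciferase-blocking compounds were not removed from the actives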
# WNV protease inh: inhibitors of WNV NS2B-NS3 protease, primary screen, biochemical, fluorogenic substrate; fluorogenic substrate Ex360/Em465; stronger effect = lower value; hit rate 0.18% among 65,000; z-score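 (tested at a level between 10 and 100 µM)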; Genome polyprotein (West Nile virus), P06935;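 active = z-score at -3 or under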;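 note: score is relative to mean and spread of the compound wells of a plate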
# Target sequence (P06935 1371-1501 limits assumed): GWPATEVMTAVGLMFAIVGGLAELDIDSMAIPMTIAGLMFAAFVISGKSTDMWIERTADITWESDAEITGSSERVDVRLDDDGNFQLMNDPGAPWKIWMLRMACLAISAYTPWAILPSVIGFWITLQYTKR
# Target sequence (P06935 1502-1679 limits assumed): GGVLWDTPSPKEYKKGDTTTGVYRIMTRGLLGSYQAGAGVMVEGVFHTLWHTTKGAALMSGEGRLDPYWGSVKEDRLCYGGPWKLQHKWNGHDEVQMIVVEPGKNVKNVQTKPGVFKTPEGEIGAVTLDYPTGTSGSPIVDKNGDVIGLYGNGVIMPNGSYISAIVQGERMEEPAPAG
# Hsc70 ATP site: Hsc70 inhibitors, probe displacement, primary screen, biochemical, fluorescence polarization (AID 568) | Heat shock cognate 71 kDa protein (Homo sapiens) | Hsc70 fluorescence polarization, probe displacement; higher % means a stronger effect; strong numbers were not always called active | one-dose displacement, % at 20 µM; IC50 in µM for titrated hits | 83,000 tested, under 10 active;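 active = displacement above 50% without optical interference and an IC50 on retest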;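 note: ATPase domain with a fluorescein-tagged ATP probe; 0% = vehicle and 100% = excess ADP; read after one hour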
# * = called active by the depositor; i = inactive; nt = no result given; + = active, no number.
# Fields: WNV protease inh, Hsc70 ATP site, MT1-MMP reporter
CCCCOC(=O)C1[C@H]2C(=O)N(CCc3ccccc3)C[C@]23C=C[C@H]1O3 (stereo partly specified)
→ 1.3, -1.4%, i
O=C(O)C1C2C=CC(O2)C1C(=O)NCCC1=CCCCC1 (stereo unspecified)
→ -1.1, -1.5%, i
CCSc1nc2ccccc2[nH]1
→ nt, 7.9%, i
CCOC(=O)c1ccc(CSc2n[nH]c(C)n2)o1
→ 0.06, 4.2%, i
O=C(Nc1ccc(-c2nc3ccccc3o2)cc1)C1CCCO1 (stereo unspecified)
→ 0.23, -5.1%, +
COc1ccc(CCNC(=O)CSc2nnc(Cn3c(=O)sc4ccccc43)n2C)cc1OC
→ -0.34, 6.3%, i
Cc1ccc2cc(C3C(C#N)=C(N)Oc4c3ccc3cccnc43)c(=O)[nH]c2c1 (stereo unspecified)
→ nt, 0.4%, i
CSCCC(Nc1nc2ccccc2s1)C(=O)O (stereo unspecified)
→ 0.53, -3.9%, i
Cc1ccc(O)c(C(=O)c2cnc3c(c2)CN(CCC(C)C)C(=O)N3)c1
→ -0.17, -7.8%, i
Cc1cc(C)nc(NS(=O)(=O)c2ccc(-n3cccc3)cc2)n1
→ -0.27, 0.8%, i
Cc1cccc2c1N(CCCOc1ccccc1)C(=O)C2=O
→ nt, 0.7%, i
COc1cccc2sc(N3CCN(c4nc5ccccc5s4)CC3)nc12
→ 0.21, -1.4%, i
O=C(CCC1COc2ccccc2O1)Nc1ccc(Cl)cn1 (stereo unspecified)
→ 1.5, -1.2%, i
CCn1c(=O)c(C(=O)NCc2cccnc2)c(O)c2ccccc21
→ 0.74, 10%, i
CCC(=O)Nc1ccc(NC(=O)c2c(C)nc3ccccn23)cc1
→ -1.1, 1.0%, i
CC(C)=CC1C=C(C)C(C)C2C(=O)NNC(=O)C12 (stereo unspecified)
→ nt, 6.8%, i
COc1ccc2c(Cl)c(-c3nnc(SCC(=O)c4ccccc4)n3C)sc2c1
→ nt, -8.1%, i
O=C(c1ccco1)N1CCN(C(=O)c2cc(-c3ccccn3)nc3ccccc23)CC1
→ 1.5, 1.0%, i
O=C(Nc1ccc(-c2nc3ccc(NC(=O)c4cccs4)cc3[nH]2)cc1)c1cccs1
→ nt, -10%, i
Cc1csc(NC(=O)CSc2nsc(SCC(=O)Nc3nc(C)cs3)c2C#N)n1
→ -0.44, 1.1%, i
Cc1ccc(C2C(C(=O)c3ccco3)=C(O)C(=O)N2c2nnc(C)s2)cc1 (stereo unspecified)
→ nt, 50%, i
CC1CN(C2CC(C)(C)NC(C)(C)C2)CCC1=O (stereo unspecified)
→ 1.5, -0.1%, i
Cc1ccc(S(=O)(=O)N2CCN(c3nc(C)nc4sc(C)c(C)c34)CC2)cc1
→ -0.44, -0.1%, i
CCOC(=O)Cc1csc(SCn2nnc3ccccc3c2=O)n1
→ 0.43, -1.7%, i
COc1ccccc1OCCn1c(=O)sc2ccccc21
→ -0.66, 2.8%, i
CCOc1cc(-c2nc(-c3ccc(OC)cc3)no2)cc(OCC)c1OCC
→ -0.65, 3.9%, i
O=C(C1CCC(CNc2c(N3CCOCC3)c(=O)c2=O)CC1)N1CCN(c2ccccc2)CC1 (stereo unspecified)
→ 1.1, 2.5%, i
CC(=O)N1CCc2cc(S(=O)(=O)NC(CC(C)C)C(=O)N3CCc4ccccc4C3)ccc21 (stereo unspecified)
→ -0.03, -0.2%, i
COc1ccc(N2C(=O)CCC(C(=O)O)C2c2ccc(F)cc2)cc1 (stereo unspecified)
→ 0.71, -4.0%, i
O=C(c1cccnc1)N1CCN(C(=O)c2ccco2)CC1
→ nt, 3.9%, i
O=C(CSc1ccc2ccccc2n1)N1CCC(c2noc3ccc(F)cc23)CC1
→ nt, 3.2%, i
O=C(Nc1ccc2nsnc2c1)N1CCCCCC1
→ nt, -4.3%, i
CC1=CC(c2ccccc2)n2nc(N3C(=O)c4ccccc4C3=O)nc2N1 (stereo unspecified)
→ -0.79, 3.1%, i
COc1ccc(N2CCN(C(=O)CN(Cc3ccc(Cl)cc3)S(C)(=O)=O)CC2)cc1
→ nt, 4.1%, i
COc1cc2c(C(=O)NCc3ccc(C)o3)cn(CC(C)C)c(=O)c2cc1OC
→ 0.01, 4.7%, i
COc1cccc(NC(=O)N2CCCC2C(=O)Nc2ccc3c(c2)OCO3)c1 (stereo unspecified)
→ -0.01, 0.8%, i
Cc1cccc(N2CCN(C(=O)Cn3ccc4ccccc4c3=O)CC2)c1C
→ -0.09, -0.1%, i
Clc1cccc(-c2nnc3sc(-c4ccc5c(c4)OCO5)nn23)c1
→ 1.3, -0.2%, i
O=C(Nc1ccccc1C(=O)Nc1ccccc1C(=O)NCc1ccco1)c1ccco1
→ -0.02, -3.1%, i
Cc1cc(NC(=O)c2cc(-c3cccnc3)nc3c(C)c(C)ccc23)no1
→ 0.13, 2.0%, i
CCCCNC(=O)c1ccccc1NS(=O)(=O)c1ccc2c(c1)OCCO2
→ 0.47, -2.7%, i
Cc1cc(Cl)c(S(=O)(=O)NCCC(=O)O)cc1OCC(N)=O
→ 0.65, -3.7%, i
Cc1ccc(CN2CC(C(=O)Nc3ccc(S(=O)(=O)Nc4cc(C)nc(C)n4)cc3)CC2=O)cc1 (stereo unspecified)
→ -0.92, 10%, i
C=CCn1cnc2c(c1=O)c1nc3ccccc3nc1n2/N=C/c1cc(OC)c(OC)c(OC)c1
→ -1.1, 1.9%, i
C=CCc1cccc(CNc2nc3ccccc3n2CC)c1O
→ -1.3, -7.1%, i
CCS(=O)(=O)N1CCC(C(=O)NC2CCCCC2)CC1
→ -0.18, 0.9%, i
CCOC(=O)COc1ccc(C(=O)NC2CCCCC2)cc1
→ -0.08, 1.6%, i
Cc1ccc2c(c1)nnn2C1CCN(C(=O)c2cccs2)CC1
→ -1.2, 3.7%, i
Cc1sc2ncnc(N(C)Cc3ccco3)c2c1C
→ nt, 5.5%, i
COC(=O)c1ccc(NC(=O)Cn2nc(SC)n(N)c2=S)cc1
→ -2.1, -3.3%, i
c1ccc(-n2ncc3c2ncn2c(CSc4nc5ccccc5s4)nnc32)cc1
→ -1.2, -31%, i
O=C1NC2(CCCC2)N=C1c1ccc(Cl)cc1
→ 0.44, 3.2%, i
COc1ccc(NC(=O)CSc2ncc(-c3ccc(F)cc3)n2Cc2ccco2)cc1
→ nt, -5.6%, i
COc1cc2nc(NCC3CCCO3)n3nc(-c4cccnc4)nc3c2cc1OC (stereo unspecified)
→ 0.28, -2.0%, i
O=C1/C(=C/c2cccnc2)Oc2cc(OS(=O)(=O)c3ccccc3)ccc21
→ nt, 5.3%, i
O=C(Nc1cccnc1)c1cc(-c2ccco2)on1
→ -1.1, 5.7%, i
Cc1nc2nc(CSc3ccc(Cl)cc3)cc(=O)n2[nH]1
→ nt, -18%, i
C=CCN(C(=O)Nc1ccccc1)C1CC(=O)N(c2ccc(OC)cc2)C1=O (stereo unspecified)
→ -1.6, -0.3%, i
O=C(NCCCN1CCCC1=O)NC1CCCCC1
→ nt, 3.1%, i
NC(=O)C1CCN(S(=O)(=O)c2cccc(S(=O)(=O)N3CCCCC3)c2)CC1
→ 0.04, -6.9%, i

# (continued)
# Fields: WNV protease inh, Hsc70 ATP site, MT1-MMP reporter
COc1ccc(NC(=O)c2cc(CN3C(=O)c4ccccc4C3=O)ccc2OC)cn1
→ -0.45, 16%, i
CCCc1nc(SCC(=O)Nc2cc(C)on2)c2c(=O)n(C)c(=O)n(C)c2n1
→ 1.1, 1.2%, i
Fc1ccccc1Cn1nnc2c(NCCc3ccccn3)ncnc21
→ -0.9, 3.8%, i
CC(=O)c1ccc2c3c(cccc13)C(=O)N(c1c(C)nn(C)c1C)C2=O
→ -1, 5.7%, i
Cc1ccc(C(=O)NCc2ccc3c(c2)OCO3)cc1N1CCCC1=O
→ -0.27, -1.4%, i
COc1cccc(-c2nc3ccc(O)cc3c(=O)o2)c1
→ -0.81, 2.0%, i
Cc1ccc(-c2nnc(NC3CCCCC3)c3ccccc23)cc1S(=O)(=O)N1CCN(C)CC1
→ nt, -3.2%, i
Cc1cc(C)nc(NC2=NCC(=O)N2CCc2c[nH]c3ccccc23)n1
→ -0.69, 0.9%, i
Cc1cc(/C(O)=C2\C(=O)C(=O)N(CCN(C)C)C2c2ccncc2)ccc1OCc1ccccc1 (stereo unspecified)
→ 0.37, 4.0%, i
COC(=O)C(C)Sc1nc2c([nH]c3ccccc32)c(=O)n1C (stereo unspecified)
→ -0.04, -8.7%, i
Cn1c(C(O)c2ccccc2)nc(Cl)c1Cl (stereo unspecified)
→ -0.75, 4.7%, i
Cc1cccc(C(=O)Nc2ccccc2N2CCN(c3ccc(F)cc3)CC2)c1
→ nt, -2.3%, i
O=C(COc1ccccc1)Nc1ccccc1N1CCN(c2ccc(F)cc2)CC1
→ 1.1, 1.1%, i
Cc1ccccc1NC(=S)N(C)C1(c2ccccc2Cl)CCCCC1=O (stereo unspecified)
→ nt, -4.1%, i
O=C(CSc1nnnn1-c1cccc2c1CCCC2)NC1CCCC1
→ nt, 1.8%, i
CCC(C)n1c(SC(C)C#N)nc2ccccc2c1=O (stereo unspecified)
→ 1.1, -0.2%, i
c1ccc(OCCSc2nc3ccccc3[nH]2)cc1
→ nt, -3.4%, i
CCCOc1ccccc1C(=O)NC(CO)C(=O)O (stereo unspecified)
→ nt, 4.0%, i
O=C(O)CCC(C(=O)O)n1c(O)c(C2=c3ccccc3=NC2=O)sc1=S (stereo unspecified)
→ -0.84, -6.0%, i
O=C(NC1CCCc2ccccc21)C1CCN(c2nnc(-n3cccc3)s2)CC1 (stereo unspecified)
→ -1.2, -2.7%, i
CCCn1c(-c2ccccc2)nc2c(=O)n(C)c(=O)[nH]c21
→ -0.59, 1.8%, i
Cc1[nH]nc2c1C1(CCN(Cc3ccccc3)CC1)C(C#N)=C(N)O2
→ -0.75, 20%, i
Cc1occc1-c1nnc(SCC(=O)Nc2nc3ccccc3s2)o1
→ nt, 1.2%, i
Cc1ccc(-n2nc(C(=O)c3ccccc3)n3c(=O)c(Cc4ccccc4)nnc23)cc1
→ nt, 0.3%, i
COCCNC(=O)Cn1nc(-c2ccccc2OC)ccc1=O
→ 0.09, -5.1%, i
CC(C)CNC(=S)NNC(=O)c1nn(C)cc1Cl
→ nt, 3.6%, i
O=C(C1COc2ccccc2O1)N1CCOCC1 (stereo unspecified)
→ -0.29, -1.5%, i
Cc1ccc(S(=O)(=O)CCC(=O)Nc2nccs2)cc1
→ nt, 0.5%, i
CCN(CC)CCN1C(=O)Cn2c(C)c(C)c3cccc1c32
→ -0.65, -0.4%, i
CCOc1ccc(C2=Nn3c(nnc3-c3ccccn3)SC2)cc1
→ 1.2, 0.4%, i
CSc1cccc(NC(=O)CSc2nc3ccccc3o2)c1
→ 2.3, 3.9%, i
CCn1c(SCC(=O)NCc2cccs2)nc2c1c(=O)n(C)c(=O)n2C
→ 1.4, 2.7%, i
CCOC(=O)c1cn2c3c(c(F)c(F)c(F)c3c1=O)SC(N1CCCC1)=N2
→ 0.15, 27%, i
COc1ccc(C(=O)Nc2cccc3c2C(=O)NC3=O)cc1S(=O)(=O)N1CCOCC1
→ 0.25, 6.6%, i
COc1ccc(CNc2nc3c(c(C(F)(F)F)n2)CCCCC3)cc1
→ 1.7, -1.1%, i
Cn1c(SCc2ccccn2)nnc1-c1ccncc1
→ -0.57, -9.3%, i
CSc1cccc(NC(=O)CN(C)S(=O)(=O)c2ccc(C)cc2)c1
→ nt, 0.4%, i
Oc1[nH]c2ccccc2c1/C=N/c1nccs1
→ -0.7, -6.0%, i
NC(Cc1ccc2nsnc2c1)C(=O)O (stereo unspecified)
→ nt, 8.8%, i
Clc1cc(Br)ccc1OCCn1ccnc1
→ 0.77, -0.7%, i

# Complete entries from above. Screens in order: WNV protease inh, Hsc70 ATP site, MT1-MMP reporter
# `C=CCn1cnc2c(c1=O)c1nc3ccccc3nc1n2/N=C/c1cc(OC)c(OC)c(OC)c1` is listed with -1.1, 1.9%, i
# `COc1ccc(N2CCN(C(=O)CN(Cc3ccc(Cl)cc3)S(C)(=O)=O)CC2)cc1` is listed with nt, 4.1%, i

# (cont.)
# Fields: WNV protease inh, Hsc70 ATP site, MT1-MMP reporter
C=CCN(CC(=O)NCc1ccc(OC)cc1)C(=O)c1csnn1
→ -1.2, -1.7%, i
CCN1CCN(C(=O)c2cc3c(=O)oc4ccc(C)cc4c3s2)CC1
→ -0.41, -0.4%, i
COc1ccc(S(=O)(=O)N(C)c2ccc(C(=O)N3CCOCC3)cc2)cc1
→ 0.16, 3.6%, i
CN1CCN(C(c2ccc(F)cc2)c2nnnn2Cc2cccs2)CC1 (stereo unspecified)
→ 0.34, -3.5%, i
CC(C)N(O)C(=O)NC(C)(C)C
→ 0.3, 3.1%, i
Cc1onc(-c2ccccc2Cl)c1C(=O)OCC(=O)N1CCCc2ccccc21
→ 1.1, -2.2%, i
Cn1c(=O)n(CCc2ccccc2)c(=O)c2c1nc1n2CCCN1c1ccc(F)cc1
→ -0.25, 4.9%, i
CN(C)S(=O)(=O)c1ccc(Oc2ccccc2)cc1
→ -1.5, -2.0%, i
C=CCNc1nc(Nc2ccc(OC)cc2)nc(OC)n1
→ nt, -1.4%, i

# Rewritten with each value named: part of the list above.
O=C(CCC1COc2ccccc2O1)Nc1ccc(Cl)cn1 (stereo unspecified)
  WNV protease inh: 1.5; Hsc70 ATP site: -1.2%; MT1-MMP reporter: i
NC(=O)C1CCN(S(=O)(=O)c2cccc(S(=O)(=O)N3CCCCC3)c2)CC1
  WNV protease inh: 0.04; Hsc70 ATP site: -6.9%; MT1-MMP reporter: i

# Assay outcomes (PubChem BioAssay)

# Some of the compounds tested; rates above refer to the full screens.
